DUX4 inh: inhibitors of DUX4-driven ZSCAN4 reporter expression, primary screen, 293T cells, Gaussia and Italica luciferase; 293T-iDUX4 ZSCAN4-Gaussia luciferase reporter, 24 h; active compounds read low; activity change, negative = inhibition, % (concentration not given with the values); actives 0.8% (n = 37,000); AID 1224904, 2016;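 active means -10% or lower and over 25 points stronger than a control reporter; inconclusive means -10% or lower with a smaller gap; inactive means above -10%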;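 further: 0% = median of neutral control wells and -100% = median of positive control wells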
DUX4 inh difference: recorded beside DUX4 inh, whose call it bears; Gaussia minus Italica difference, %; measured here: selective DUX4 reporter inhibition;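 worked out from the two reporters; negative = selective loss of the DUX4 reporter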
DUX4 inh control: second read-out of DUX4 inh, no call of its own (marks repeat the call); activity change, negative = inhibition, %; measured here: Italica tet-on control reporter;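 0 = neutral control and -100 = positive control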
Starred values were filed as active, the others as inactive; ? = inconclusive; / = not tested or not shown. The list is partial, so the mix of outcomes need not match the whole.

SMILES	DUX4 inh	DUX4 inh difference	DUX4 inh control
C[C@H]1CN([C@@H](C)CO)C(=O)c2cc(NC(=O)CCCCCC(=O)Nc3ccccc3N)ccc2O[C@H]1CN(C)C(=O)Nc1ccc(C(F)(F)F)cc1	6.4	3.5	2.9
O=C(CC1CC1)Nc1ccc2c(c1)[C@H]1C[C@@H](CC(=O)N3CCCCC3)O[C@H](CO)[C@H]1O2	5.0	3.4	1.6
CCS(=O)(=O)N1CC2(C1)[C@H](c1ccccc1)[C@H](CO)N2Cc1ccc(F)cc1	-0.6	5.9	-6.5
COc1ccccc1NC(=O)N1C[C@H](O)COC[C@H]2O[C@H](CC(=O)NCCc3ccccc3)CC[C@@H]21	14.0	7.9	6.2
O=C(C1CCC1)N1CC2(C1)[C@@H](c1ccccc1)[C@@H](CO)N2CCC(F)(F)F	-3.8	-4.3	0.5
CCC(=O)N1[C@H](CO)[C@H](c2ccccc2)[C@H]1CN(CC1CCC1)S(C)(=O)=O	0.0	-0.1	0.1
O=C(CC(F)(F)F)N1C[C@@H]2[C@H](c3ccccc31)[C@H](CO)N2C(=O)c1cccnc1	1.9	-1.0	2.9
Cc1ccccc1S(=O)(=O)N1CC[C@@H]2[C@H](CO)Nc3ccc(-c4ccc(F)cc4)cc3[C@@H]21	?	/	/
COc1ccccc1S(=O)(=O)N(C)C[C@H]1Oc2ncc(-c3ccc(C)cc3)cc2C(=O)N([C@@H](C)CO)C[C@H]1C	3.9	-3.1	7.0
COCC(=O)N1C[C@H]2[C@@H](c3ccccc31)[C@H](CO)N2C(=O)c1ccncc1	0.2	-3.3	3.6
CC(C)(C)[S@@](=O)N1Cc2cc(C(=O)NCCc3ccncc3)nc(-c3cccc(-c4cccc(C#N)c4)c3)c2[C@H]1CCO	-2.6	3.9	-6.5
O=C(C1CC1)N1CC[C@@H]2[C@H]1c1cc(C#Cc3ccccc3F)ccc1N[C@@H]2CO	?	/	/
CCS(=O)(=O)Nc1ccc2c(c1)C(=O)N(C)C[C@@H](OC)[C@H](C)CN(C(=O)C1CCC1)[C@H](C)CO2	2.4	-0.4	2.8
Cc1cc(C(=O)Nc2cccc3c2O[C@H](CN(C)C)[C@H](C)CN([C@H](C)CO)C3=O)n(C)n1	2.3	-1.2	3.5
CC(C)NC(=O)N1CC[C@@H]2[C@H]1c1cc(-c3cccc(F)c3)ccc1N(C)[C@@H]2CO	-7.7	-7.3	-0.4
CN1C[C@H]2[C@@H](c3ccccc31)[C@@H](CO)N2Cc1ccccc1F	3.7	1.5	2.3
C[C@@H](O)C#Cc1ccc([C@@H]2[C@@H](CO)N3CCCCN(C(=O)c4ccc5c(c4)OCO5)C[C@@H]23)cc1	-1.0	-0.8	-0.3
CN(C[C@@H]1[C@@H](c2ccccc2)[C@H](CO)N1CC1CC1)C(=O)c1cccc(F)c1	-4.6	-2.1	-2.4
O=C(C[C@H]1CC[C@@H](NS(=O)(=O)c2ccc(F)cc2)[C@H](CO)O1)N1CCN(c2ccccc2)CC1	0.0	-3.0	3.0
C[C@@H]1CN([C@H](C)CO)C(=O)Cc2cc(NC(=O)Cc3cn(C)c4ccccc34)ccc2O[C@@H]1CN(C)Cc1ccc(C(F)(F)F)cc1	-0.6	-1.5	0.8
CNC[C@H]1OCCCC[C@H](C)Oc2ccc(N)cc2C(=O)N([C@@H](C)CO)C[C@@H]1C	4.7	-1.2	5.9
O=C(Nc1cc(F)ccc1F)N[C@H]1CC[C@@H](CC(=O)N2CCc3ccccc3C2)O[C@@H]1CO	1.1	-5.3	6.5
O=C(C[C@H]1C=C[C@H](NC(=O)Nc2cccc(F)c2)[C@@H](CO)O1)NCC1CCCCC1	-4.5	-1.1	-3.4
COc1ccc(-c2ccc3c(c2)[C@@H]2[C@@H](CCN2C(=O)CN2CCOCC2)[C@H](CO)N3)cc1	19.8	6.7	13.1
CN1C(=O)c2cc(NC(=O)Nc3ccccc3F)ccc2OC[C@H]2O[C@@H](CC(=O)NCCc3ccncc3)CC[C@H]21	-1.4	-4.1	2.6
CNC(=O)C[C@H]1CC[C@H]2[C@H](COc3ccc(NC(=O)NC4CCCC4)cc3C(=O)N2C)O1	0.5	-1.5	2.0
C[C@H]1CN([C@@H](C)CO)C(=O)c2cccc(NC(=O)Nc3ccc(F)cc3)c2O[C@@H]1CN(C)CC1CCCCC1	-1.4	0.1	-1.5
COc1ccccc1NC(=O)C[C@H]1CC[C@H]2[C@@H](COc3ccc(NC(=O)C(C)C)cc3C(=O)N2C)O1	-0.4	-4.0	3.6
O=C(NCCc1ccccc1)[C@H]1[C@H](CO)[C@H]2Cn3c(cccc3=O)[C@@H]1N2Cc1ccccn1	-3.3	-4.3	1.0
COc1ccc(NC(=O)N(C)C[C@@H]2Oc3ccc(NC(=O)CCN4CCOCC4)cc3C(=O)N([C@H](C)CO)C[C@@H]2C)cc1	1.4	-7.7	9.2
C[C@H](CO)N1C[C@H](C)[C@H](CN(C)Cc2ccc(Oc3ccccc3)cc2)OCc2ccccc2-c2c(n(C)c3ccccc23)C1=O	-0.8	0.3	-1.2
COc1ccc(S(=O)(=O)N(C)C[C@@H]2OCCCC[C@H](C)Oc3ccc(NC(=O)Cc4ccccc4)cc3C(=O)N([C@H](C)CO)C[C@@H]2C)cc1	0.2	5.6	-5.4
O=C(C[C@H]1CC[C@H]2[C@@H](COC[C@H](O)CN2C(=O)C2CCCC2)O1)NCc1ccncc1	12.7	7.1	5.5
CC=Cc1ccc2n(c1=O)C[C@H]1[C@H](CO)[C@@H](C(=O)N[C@@H](C)c3ccccc3)N(C)[C@@H]21 (mixture of isomers)	-1.5	-2.0	0.6
O=C(C[C@H]1C=C[C@H](NS(=O)(=O)c2cccc(F)c2)[C@@H](CO)O1)N1CCCCC1	-2.3	-1.7	-0.6
CO[C@H]1CN(C)C(=O)c2ccc(NS(C)(=O)=O)cc2OC[C@@H](C)NC[C@@H]1C	4.1	-2.0	6.0
C[C@@H]1CCCCO[C@@H](CN(C)C(=O)c2ccncc2)[C@H](C)CN([C@@H](C)CO)C(=O)c2cc(NC(=O)CCC(F)(F)F)ccc2O1	-3.2	-1.1	-2.1
CCCNC(=O)N1[C@H](C#N)[C@@H](c2ccccc2)[C@H]1CO	-5.0	-1.0	-4.0
CN(C)CC#Cc1ccc([C@H]2[C@H](CO)N3CCCCN(C(=O)Nc4ccc(F)cc4)C[C@@H]23)cc1	12.5	-1.5	14.1
COC(=O)C[C@@H]1CC[C@H]2[C@@H](COC[C@H](O)CN2S(=O)(=O)c2cn(C)cn2)O1	-5.9	-4.4	-1.4
COCC(=O)Nc1ccc2c(c1)C(=O)N(C)[C@H]1CC[C@@H](CC(=O)NCC(F)(F)F)O[C@@H]1CO2	2.5	0.4	2.1
O=C(C1CC1)N1CC2(C1)[C@@H](c1ccccc1)[C@@H](CO)N2CC1CCCC1	?	/	/
COC(=O)C[C@H]1CC[C@H]2[C@@H](COC[C@H](O)CN2C(=O)Nc2cccc(F)c2)O1	3.9	-5.0	9.0
O=C1CN(S(=O)(=O)c2ccccc2)C[C@H]2[C@H](c3ccc(C4=CCCC4)cc3)[C@@H](CO)N12	14.7	-1.8	16.6
CO[C@@H]1CN(C)C(=O)c2ccc(NC(=O)c3ccc(Oc4ccccc4)cc3)cc2OC[C@@H](C)N(C(C)=O)C[C@H]1C	-2.0	0.6	-2.6
O=C(C[C@H]1CC[C@H]2[C@@H](COC[C@H](O)CN2C(=O)c2ccccc2F)O1)NCc1ccc(Cl)c(Cl)c1	-9.8	4.5	-14.3
CN1C(=O)c2cc(NC(=O)c3cnccn3)ccc2OC[C@H]2O[C@@H](CC(=O)N[C@@H]3CCN(Cc4ccccc4)C3)CC[C@H]21	3.7	0.2	3.5
CCN1[C@@H]2c3ccc(-c4cccc(F)c4)c(=O)n3C[C@@H]2[C@@H](CO)[C@@H]1C(=O)N1CCCCC1	-3.7	-4.1	0.4
CCCNC(=O)[C@@H]1N[C@@H]2c3ccc(C4=CCCC4)c(=O)n3C[C@@H]2[C@H]1CO	1.7	1.4	0.3
O=C(NCC[C@H]1CC[C@H](NS(=O)(=O)c2ccccc2)[C@@H](CO)O1)c1ccccc1F	7.8	-2.5	10.3
CCCN1[C@@H]2c3ccc(-c4ccccc4)c(=O)n3C[C@@H]2[C@@H](CO)[C@@H]1C(=O)NCCCN1CCOCC1	0.3	-3.0	3.3
CCN(C[C@H]1N[C@H](CO)[C@H]1c1ccccc1)C(=O)c1ccncc1	0.1	-2.8	2.9
CO[C@H]1CC[C@H]2CCOc3ccc(C#N)cc3C(=O)N(C)C[C@H](OC)[C@@H](C)C(=O)N(C)C[C@@H]1O2	-1.3	1.8	-3.1
CC(C)NC(=O)N1CC2(C1)[C@H](c1ccccc1)[C@@H](CO)N2C(=O)c1ccccn1	3.7	4.3	-0.5
O=C(NCc1ccccn1)[C@H]1[C@H](CO)[C@H]2Cn3c(cccc3=O)[C@@H]1N2CC1CCCC1	3.1	-0.1	3.2
COCC(=O)N1CCCCN2[C@@H](CO)[C@@H](c3ccc(-c4ccc(F)cc4)cc3)[C@@H]2C1	2.8	18.7	-15.9
O=C(c1cccc(F)c1)N1C[C@@H]2[C@H](c3ccccc31)[C@@H](CO)N2C(=O)C1CCOCC1	3.6	3.3	0.3
CCc1cnc(N2[C@H](CO)[C@H](c3ccc(C#CC(C)C)cc3)[C@@H]2C#N)s1	-0.4	-1.7	1.4
CNC(=O)C[C@@H]1CC[C@H]2[C@@H](COC[C@@H](O)CN2S(=O)(=O)c2cccc(Cl)c2)O1	8.0	-0.5	8.5
O=C(C[C@H]1CC[C@@H]2[C@H](COC[C@@H](O)CN2C(=O)c2cccnc2)O1)NCC1CC1	2.8	6.0	-3.2

Next compounds follow:
SMILES	DUX4 inh	DUX4 inh difference	DUX4 inh control
Cc1ccc(CN2CC(=O)N3[C@@H](CO)[C@@H](c4ccc(Br)cc4)[C@@H]3C2)cc1	12.9	0.0	12.9
CN1[C@@H]2c3ccc(/C=C/c4ccccc4)c(=O)n3C[C@@H]2[C@@H](CO)[C@@H]1C(=O)N1CCOCC1	1.3	-4.5	5.8
C[C@@H]1CN([C@H](C)CO)C(=O)c2cc(-c3ccncc3)cnc2O[C@@H]1CN(C)S(=O)(=O)c1ccccc1	5.6	-2.0	7.6
C[C@H]1CN([C@@H](C)CO)C(=O)c2cc(C3=CCCCC3)cnc2O[C@@H]1CN(C)S(=O)(=O)c1cn(C)cn1	3.2	2.0	1.1
COc1ccc2c3c(n(C)c2c1)[C@H](CO)N(C(=O)c1ccncc1)CC31CN(S(C)(=O)=O)C1	19.0	10.2	8.7
CC(C)NC(=O)Nc1ccc2c(c1)C(=O)N([C@@H](C)CO)C[C@H](C)[C@@H](CN(C)C(=O)C1CCCCC1)OCCCC[C@H](C)O2	1.9	-0.4	2.3
CN(C)C(=O)c1ccc(-c2ccc([C@H]3[C@@H](CO)N4CCCCN(CCC(F)(F)F)C[C@@H]34)cc2)cc1	5.9	4.7	1.2
COc1ccc2c3c(n(C)c2c1)[C@@H](CO)N(C)CC31CCN(C(=O)CN2CCOCC2)CC1	17.0	4.9	12.1
CO[C@@H]1CN(C)C(=O)c2cc(NC(=O)C3CCCCC3)ccc2OC[C@@H](C)N(C)C[C@@H]1C	4.8	-0.1	4.9
C[C@@H]1CN([C@@H](C)CO)C(=O)c2c(c3ccccc3n2C)-c2ccccc2CO[C@H]1CN(C)C(=O)Nc1cccc(C(F)(F)F)c1	?	/	/
COc1ccc(S(=O)(=O)N(C)C[C@H]2Oc3ccc(NC(=O)NC4CCCCC4)cc3CC(=O)N([C@@H](C)CO)C[C@H]2C)cc1	0.1	1.3	-1.2
COc1ccc(NC(=O)Nc2ccc3c(c2)C(=O)N([C@H](C)CO)C[C@H](C)[C@@H](CN(C)C(=O)NC2CCCCC2)OCCCC[C@H](C)O3)cc1	7.0	-1.6	8.6
COc1cccc(S(=O)(=O)Nc2ccc3c(c2)C(=O)N(C)[C@H]2CC[C@@H](CC(=O)NCC4CCCCC4)O[C@@H]2CO3)c1	-0.7	-1.1	0.4

Structural class: the entries above containing a CF3 group (eight)
SMILES	DUX4 inh	DUX4 inh difference	DUX4 inh control
C[C@H]1CN([C@@H](C)CO)C(=O)c2cc(NC(=O)CCCCCC(=O)Nc3ccccc3N)ccc2O[C@H]1CN(C)C(=O)Nc1ccc(C(F)(F)F)cc1	6.4	3.5	2.9
O=C(C1CCC1)N1CC2(C1)[C@@H](c1ccccc1)[C@@H](CO)N2CCC(F)(F)F	-3.8	-4.3	0.5
O=C(CC(F)(F)F)N1C[C@@H]2[C@H](c3ccccc31)[C@H](CO)N2C(=O)c1cccnc1	1.9	-1.0	2.9
C[C@@H]1CN([C@H](C)CO)C(=O)Cc2cc(NC(=O)Cc3cn(C)c4ccccc34)ccc2O[C@@H]1CN(C)Cc1ccc(C(F)(F)F)cc1	-0.6	-1.5	0.8
C[C@@H]1CCCCO[C@@H](CN(C)C(=O)c2ccncc2)[C@H](C)CN([C@@H](C)CO)C(=O)c2cc(NC(=O)CCC(F)(F)F)ccc2O1	-3.2	-1.1	-2.1
COCC(=O)Nc1ccc2c(c1)C(=O)N(C)[C@H]1CC[C@@H](CC(=O)NCC(F)(F)F)O[C@@H]1CO2	2.5	0.4	2.1
CN(C)C(=O)c1ccc(-c2ccc([C@H]3[C@@H](CO)N4CCCCN(CCC(F)(F)F)C[C@@H]34)cc2)cc1	5.9	4.7	1.2
C[C@@H]1CN([C@@H](C)CO)C(=O)c2c(c3ccccc3n2C)-c2ccccc2CO[C@H]1CN(C)C(=O)Nc1cccc(C(F)(F)F)c1	?	/	/
